# Screening results from PubChem BioAssay.
# 2A firefly – FMDV 2A StopGo reporter, firefly signal | HEK cells with a luciferase reporter of 2A StopGo recoding | Potency, µM (highest dose often 57.5 µM), inactives show at the top dose signal change, negative = less light | 0.23% of 120,000 active | AID 1745856; active = well fitted falling curve with a large enough effect; inconclusive = small, poorly fitted or top-dose-only effect; inactive = no such curve, though single readings can be large or run the other way; note: nearly all actives have a fitted effect of over 60% in size; overnight with compound
# 2A Renilla – FMDV 2A StopGo reporter, Renilla signal; HEK cells with a luciferase reporter of 2A StopGo recoding; Potency, µM (highest dose often 57.5 µM), inactives show at the top dose signal change, negative = less light; 0.32% of 120,000 active; AID 1745857; active means well fitted falling curve with a large enough effect; inconclusive means small, poorly fitted or top-dose-only effect; inactive means no such curve, though single readings can be large or run the other way; note: nearly all actives have a fitted effect of over 55% in size; overnight with compound
# * = called active by the depositor; ? = inconclusive; & = joins results of further samples; [ ] = remark or other dose. % is set by controls: 0 for no effect and ±100 for the full control effect; potency is the fitted concentration of half-maximal effect. Hits appear at their usual frequency. Share with any hit: about 0.53%.
# Below each SMILES: 2A firefly, 2A Renilla
COc1ccc(-c2nc3ccccc3s2)cc1NC(C)=O
  109%[activator], -7%
CCN1CCN(CCNC(=O)c2ccc(-c3nc(CS(=O)(=O)c4ccccc4)c(C)o3)cc2)CC1
  6%, 1%
CCn1cnc2c1c(=O)n(CC(=O)OCCOc1cccc(Cl)c1)c(=O)n2Cc1ccccc1
  -4%, 0%
Cc1ccc(C(=O)N(Cc2ccco2)C2CC2)o1
  -9%, -6%
Cc1cc(=O)[nH]c2nnc(SCc3ccc(Cl)c(Cl)c3)n12
  -7%, -1%
CCCNC(=O)c1c(-n2cnnn2)sc2c1CCC2
  -8%, 12%
COc1ccc(-c2c(C(F)(F)F)oc3cc(OCC(=O)OC(C)C)ccc3c2=O)cc1OC
  -5%, -9%
O=C(Cc1scnc1-c1cccs1)NCc1ccccc1F
  32%[activator], 9%
CCCNC(=O)NCCN(C)C
  -2%, 4%
FC(F)(F)c1cccc(N/N=C/c2cccc(Br)c2)c1
  181%[activator], 28%
Clc1ccc(C(Cn2ccnc2)OCc2ccc(Sc3ccccc3)cc2)c(Cl)c1 (stereo not given)
  -7%[11.5 µM], -7%
COc1cc(NC(=O)Nc2c(NC3CCCCC3)c3ccccc3oc2=O)cc(OC)c1
  31%[activator], 44%[activator]
NS(=O)(=O)c1ccc(CCNC(=O)C2CCN(c3ncnc4c3nc3n4CCCCC3)CC2)cc1
  -13%, -3%
Cc1c(CC(=O)O)c(=O)oc2cc(OCc3ccc(F)cc3)ccc12
  116%[activator], 1%
CSc1ccc(CCNC(=O)c2cc(C)nc3c2c(C)nn3-c2ccccc2)cc1
  -12%, -10%
CCC(=O)Nc1nnc(Cc2c[nH]c3ccccc23)s1
  -12%, ?
COc1cc2c(=O)c(S(=O)(=O)c3ccc(C)cc3)cn(Cc3cccc(C)c3)c2cc1OC
  -4%, 52%[activator]
Cc1nc2ccc(S(=O)(=O)CCC(=O)Nc3ccc(C)c(C)c3)cc2s1
  11%, -5%
NC(=O)c1ccccc1N=Cc1ccccc1O
  149%[activator], 13%
CCOC(=O)c1c(NC(=O)Nc2ccc(F)cc2)sc(C(=O)N(C)C)c1C
  6%, 5%
CC(C)Oc1ccc(C(=O)NCCc2csc(-c3cccc(F)c3)n2)cc1
  -12%, 38%[activator]
Cc1ccc(C)c(C(=O)CSc2nnc(COc3ccc(Cl)cc3)n2C)c1
  7%, 13%
OCCCNCc1ccc(-c2ccccc2)cc1
  5%, 3%
Cc1ccc(-c2nnc(Cn3cnc(C#N)n3)o2)cc1
  -4%, -26%
O=C(O)c1ccc(S(=O)(=O)NCCCO)cc1
  35%, 27%
Cc1oc(-c2ccccc2)nc1CC(=O)NCC1CCCN(C(C)C)C1 (stereo not given)
  -10%, -12%
CCc1cnc2c(c1SCC(=O)N1CCCCC1)c(=O)n(C)c(=O)n2C
  -12%, 20%
O=C(/C=C/c1ccc(-c2ccccc2Cl)o1)c1ccc(F)cc1
  46%[activator], -6%
Cc1cccc(C)c1NC(=O)CN1C(=O)CCSc2ccc(S(=O)(=O)N3CCCC3)cc21
  -17%, -8%
COc1ccc(C2=NN(C(=O)CN3CCc4ccccc4C3)C(c3ccco3)C2)cc1 (stereo not given)
  -3%, -1%
COc1ccccc1NC(=O)CN(C)S(=O)(=O)c1cccc2cccnc12
  15%, 44%[activator]
NC(=O)c1ccc(CNC2(c3ccc(F)cc3)CCCC2)cc1
  -13%, 2%
COc1ccc2c(c1)c1c(c(=O)n(Cc3ccccc3)c(=O)n1Cc1ccc(C)cc1)n2C
  9%, -10%
Cn1c(=O)[nH]c(=O)c2c1nc(Sc1ccccc1)n2Cc1ccccc1Cl
  -2%, -3%
CN(C(=O)COC(=O)c1cncc(Br)c1)C1CCS(=O)(=O)C1 (stereo not given)
  -4%, -8%
Fc1cccc(NC(=S)NCCc2c[nH]c3ccccc23)c1
  -9%, 71%[activator]
Cc1ccc2nc(C)c(C(=O)NCc3cccnc3-n3cccn3)cc2c1
  -15%, -9%
CC(C)(C)c1nc2cc(NC(=O)c3cc[n+]([O-])cc3)ccc2o1
  -13%, ?
Cc1ccc2oc(=O)c3cnn(CC(=O)NCc4ccccc4Cl)c3c2c1
  -8%, -2%
COc1cccc(CNC(=O)Nc2c(N3CCCC3)c3ccccc3oc2=O)c1
  6%, 6%

# Laid out differently: entries from further up.
Compound | 2A firefly | 2A Renilla
COc1ccc2c(c1)c1c(c(=O)n(Cc3ccccc3)c(=O)n1Cc1ccc(C)cc1)n2C | 9% | -10%
Cc1ccc(C)c(C(=O)CSc2nnc(COc3ccc(Cl)cc3)n2C)c1 | 7% | 13%
O=C(/C=C/c1ccc(-c2ccccc2Cl)o1)c1ccc(F)cc1 | 46%[activator] | -6%
OCCCNCc1ccc(-c2ccccc2)cc1 | 5% | 3%
CC(C)Oc1ccc(C(=O)NCCc2csc(-c3cccc(F)c3)n2)cc1 | -12% | 38%[activator]
CN(C(=O)COC(=O)c1cncc(Br)c1)C1CCS(=O)(=O)C1 (stereo not given) | -4% | -8%

# The results go on:
# Below each SMILES: 2A firefly, 2A Renilla
O=C(NC1CCN(Cc2ccccc2)CC1)c1ccccc1C(=O)c1ccc(F)cc1
  -9%, -11%
CCOC(CNC(=O)CSCc1nc(-c2ccc(C)cc2)oc1C)OCC
  17%, 25%
CSc1nc2sc3c(c2c(=O)n1-c1ccc(F)c(Cl)c1)CCN(C(C)=O)C3
  -15%, -6%
Cc1cccc(CNc2ncc(C(N)=O)cc2Cl)n1
  54%[activator], 19%
O=C(c1cc2cc(F)ccc2[nH]1)N(Cc1ccco1)Cc1ccco1
  15%, 68%[activator]
COC(=O)c1cnc(Nc2cc(C)ccc2OC)c2ccccc12
  1%, -2%
CCOC(=O)c1c(-c2ccccc2)oc2cc(Br)c(OCc3ccccc3)cc12
  18%, 13%
COc1ccccc1CN1CCC(Cc2ccccc2)CC1
  -3%, -7%
Cn1c(=O)[nH]c(=O)c2c1nc(SCCCc1ccccc1)n2Cc1ccccc1
  22%, 20%
Cc1ccc(C)c(Cn2c(=O)c3c(nc4n3CCN4c3ccc(F)cc3)n(C)c2=O)c1
  -2%, -9%
Cc1ccc(-c2cnc(CCC(=O)N(C)C(C)c3ccc(S(N)(=O)=O)cc3)o2)cc1 (stereo not given)
  6%, -1%
CC(=O)N1c2ccc(S(=O)(=O)N3CCCCCC3)cc2CC1C(=O)NCc1cccc(C)c1 (stereo not given)
  -13%, -1%
O=C(CCCSc1nc2ccccc2s1)NCc1ccc(F)cc1
  -9%, -5%[1.06 µM]
Cc1ccc(C)c(OCC(=O)Nc2ccc(S(=O)(=O)Nc3onc(C)c3C)cc2)c1C
  -6%, -13%
COc1ccc(C(=O)/C=C/c2c(F)cccc2F)cc1CC(=O)O
  0%, -5%
COc1ccc(CNC(=O)COC(=O)CCOc2ccc(C)cc2)cc1
  -9%, -2%
O=C(NC1CC2CC1C1CCCC21)c1nc(Cl)ccc1Cl (stereo not given)
  2%, 17%
CCc1cc(CC)n(-c2nc3c(c(=O)n(CC(N)=O)c(=O)n3C)n2CC(C)C)n1
  8%, -3%
CCc1ccccc1NC(=O)CSc1nnc2ccc3ccccc3n12
  17%, 2%
O=C(OCc1ncc(-c2ccc(F)cc2)o1)c1ccc(Cl)cc1
  16%, -1%
Cc1cc(=O)oc2cc(OC(C)C(=O)NC3CCN(Cc4ccccc4)CC3)ccc12 (stereo not given)
  -10%, -18%
O=C(COc1ccc(-c2nnco2)cc1)c1ccc(F)c(F)c1
  211%[activator], 30%[activator]
O=C(CCNC(=O)C1CCCC1)NCCc1ccccc1
  17%, 0%
CCCCn1c2ccccc2c2nnc(SCC(=O)Nc3ccc(NC(C)=O)cc3)nc21
  -5%, 1%
O=C(Nc1ccccc1)C(Cc1ccccc1)N1Cc2ccccc2C1=O (stereo not given)
  -23%, 36%[activator]
O=C(Nc1ccccc1)c1ccc2c(c1)CCC2
  95%[activator], 24%
Cc1ccc(CN(C)C(=O)c2ccc(C3SCCS3)cc2)c(C)c1
  13%, 86%[activator]
CCCc1c(C(=O)NC(C)C)nnn1-c1ccc(C)cc1
  7%, -1%
Cc1oc2ncn(C)c(=O)c2c1C(=O)NCCCN1CCCC(C)C1 (stereo not given)
  -7%, -20%
COc1cc(OC)c(NC(=O)C2CCCN(c3ncnc4c3nc3n4CCCCC3)C2)cc1Cl (stereo not given)
  -10%, -13%
O=[N+]([O-])c1ccc(/C=N/O)cc1
  0%, 24%
CC(C)CCNC(=O)CCCn1c(=O)c2cccn2c2ccccc21
  -7%, 9%
COc1cc2c(cc1OC)C(C(C(=O)N(CCc1ccc(OC)c(OC)c1OC)CCc1ccc(OC)c(OC)c1OC)c1ccccc1)=NCC2 (stereo not given)
  -14%[11.5 µM], 8%
CCCCSc1nc2c(c(=O)[nH]c(=O)n2C)n1CCOC
  8%, -2%
COc1ccccc1CCN1CNc2c(c(=O)[nH]c(=O)n2-c2ccccc2OC)C1
  21%, 18%
COCCNc1ccc(-c2n[nH]c(=O)c3ccccc23)cc1[N+](=O)[O-]
  -2%, -7%
CC(C)c1ccc2c(c1)C1(CC(=O)Nc3c1cnn3Cc1ccccc1Cl)C(=O)N2C (stereo not given)
  -24%, -2%
Cc1ccc2c(CCN)c(C)[nH]c2c1C
  5%, -5%
Cc1ccc(C)c(Cn2c(=O)n(Cc3ccc4c(c3)OCO4)c(=O)c3oc4ccccc4c32)c1
  16%, -11%
Cc1ccc(C(=O)NCC(C)(C)CNC(=O)c2ccc(C)c(C)c2)cc1C
  -21%, 9%
Cc1ccc(NC(=O)CN(C)C(=O)CCc2ncc(-c3ccc(C)c(C)c3)o2)cc1
  0%, 14%
COc1ccc(OCCN(C)CC(C#N)CCC#N)cc1 (stereo not given)
  3%, 3%
COc1ccc(N2CCN(S(=O)(=O)CCNC(=O)c3ccc(OC(C)C)cc3)CC2)cc1
  -3%, 18%
O=C(NC1CCCCCC1)c1[nH]c2ccccc2c1Cl
  204%[activator], 4%
C=CC(=O)NC(NC(=O)C=C)c1ccc(Cl)cc1
  85%[activator], 9%
CCOc1ccc(Nc2nc(-c3ccc([N+](=O)[O-])cc3)nc3ccccc23)cc1
  -19%, -20%
COc1ccc2oc(=O)c(-c3nc(-c4ccccc4C)no3)cc2c1
  0%, -9%
CC(C)(C)c1cc(C(=O)Nc2cccc(C(=O)O)c2)cc(C(C)(C)C)c1
  0%, -6%
COc1cccc(CSc2nc3n(n2)C(CC(C)C)C(C(=O)Nc2ccccc2OC)=C(C)N3)c1 (stereo not given)
  20%, 13%
Cc1cc(Cl)ccc1OCC(=O)N1CCC(c2nc3ccccc3o2)CC1
  -18%, 16%
Cc1ccc2c(c1)-c1nc3ccccc3cc1/C2=C\c1ccncc1
  199%[activator], -6%
CCC(C)NC(=O)c1ccc2c(c1)N(Cc1ccccc1)C(=O)c1ccccc1S2 (stereo not given)
  7%, -1%
COc1ccc(Cl)cc1NC(=O)CSc1ccc2nnc(CCNS(=O)(=O)c3ccccc3)n2n1
  -21%, -7%
CCOc1ccc(-n2nc(CO)c(C(=O)NCC(c3ccccc3)c3ccccc3)n2)cc1
  -16%, -13%
CN(C)S(=O)(=O)c1cccc(NC(=O)c2ccc3ccccc3n2)c1
  164%[activator], 17%
Cc1ccc(CSC2=NC(C)(C)Nc3ccccc32)c(C)c1
  ?, -13%&-9%
CCc1ccccc1NC(=O)c1sc(-n2nc(C)c(Cc3ccc4c(c3)OCO4)c2C)nc1C
  ?, ?
COc1ccccc1C(CNC(=O)C1CCN(S(=O)(=O)c2ccc3c(c2)CCC3)CC1)N(C)C (stereo not given)
  -8%, 4%
CCOc1ccc(NC(=O)Cn2cc(C(=O)c3ccccc3)c(=O)c3cc4c(cc32)OCO4)cc1
  -19%, -18%
CCC(C(=O)Nc1ccc(C(C)=O)cc1)n1nc(-c2cc(C)ccc2C)ccc1=O (stereo not given)
  9%, -1%

# The list continues.
# Below each SMILES: 2A firefly, 2A Renilla
COc1cc(CN2CCCCCC2c2cccc(F)c2)ccc1OCC(N)=O (stereo not given)
  -10%, -7%
COc1ccc(-n2cc(C(=O)Nc3ccccc3C#N)c3ccccc3c2=O)cc1
  -7%, -8%
CC1CCCN(c2nc3c([nH]2)c(=O)n(C)c(=O)n3C)C1 (stereo not given)
  2%, -8%
COc1cccc(C(=O)Nc2ccc3nc(SCC(=O)N4CCOCC4)sc3c2)c1
  23%, 37%[activator]
CCOC(=O)c1ccccc1NC(=O)Cn1c(=O)n(Cc2ccc(C(=O)NCc3ccc4c(c3)OCO4)cc2)c(=O)c2ccccc21
  -21%, -11%
COCc1cc(C)nc2c1C(=O)NC(c1ccc(NC(C)=O)cc1)N2Cc1ccccc1 (stereo not given)
  2%, 1%
Nc1ccc(C(=O)OC2CCCC2)cc1
  113%[activator], 11%
COc1ccccc1C(C)NC(=O)Cc1csc2nc(-c3ccc(F)cc3)cn12 (stereo not given)
  11%, -23%
N#C/C(=C/c1ccc(Cl)cc1)C(=O)OCC(=O)N1CCOCC1
  4%, 4%
O=C(CCn1c(=O)c2cccn2c2cccnc21)Nc1ccccc1Br
  -6%, -14%
Cc1[nH]c2ccccc2c1C(=O)C(C)Sc1nnnn1C1CCCC1 (stereo not given)
  -7%, 52%[activator]
COc1ccc(/C=C/C(=O)NCC(F)(F)F)cc1
  184%[activator], 22%
CC(C(=O)NC1CCCCCC1)N1CCN(Cc2ccccc2)CC1 (stereo not given)
  8%, -5%
COc1ccc(C2=C(O)C(=O)N(Cc3ccccn3)C2c2ccccc2F)cc1 (stereo not given)
  9%, 1%
